Bioassay records as filed in PubChem.
Menin MLL FP FL = inhibitors of human menin-MLL interaction, wild-type MLL peptide; Fluorescence polarization, fluorescein-MLL peptide displacement from menin; FP activity change, % at 61.4 µM; 290,000 tested, under 10 active; AID 1766; inconclusive = falling polarisation curve, or a change in total fluorescence; inactive = total fluorescence flat and polarisation flat or rising; no compound was filed as active; the % refers to the polarisation; negative = inhibition;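 also: % of control where 0% means no effect; inhibitors lower the polarisation; unlabelled MLL peptide was the positive control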
gsp antagonist = antagonists of gsp mutant (McCune-Albright syndrome). gsp-mutant cells, cAMP HTRF, 30 min; control for the full effect not named in the record. Potency, µM (top dose mostly 76.9 µM), for inactives: at the top dose activity change, negative = inhibition, hits mostly inhibitors. actives 0.4% (n = 340,000). AID 624288; active = falling curve of any shape with a large fitted effect; inconclusive = falling curve, mostly with a smaller effect; inactive = flat or rising curve; cell line not stated here;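 also: intracellular cAMP measured with PDE inhibitor Ro 20-1724 present during compound exposure; potency is read from the fitted curve at half-maximal effect; % is scaled to controls: 0 for no effect and ±100 for the full control effect; nearly all actives have a fitted effect of over 65% in size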
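HTRF cAMP read-out (cAMP-d2 plus anti-cAMP antibody-K in lysis buffer, 30 min RT). Before lysis, cells are exposed to compounds with […] for 30 min at 37C in DPBS containing Ca/Mg, BSA and Tween 20.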
D2 ag = human D2 receptor agonism in beta-arrestin assay; P14416; DiscoveRx PathHunter D2 beta-arrestin, luminescence, 90 min; 100% = 57 uM dopamine signal; activation, % (test concentration not listed); actives 0.084% (n = 360,000); AID 624465; in the data active = activation above about 40%; inconclusive = about 15% to 40%; inactive = below about 15%; also: compound concentration not given in the record; the text of the record calls up to 30% inactive
Target sequence (P14416 whole entry, looked up): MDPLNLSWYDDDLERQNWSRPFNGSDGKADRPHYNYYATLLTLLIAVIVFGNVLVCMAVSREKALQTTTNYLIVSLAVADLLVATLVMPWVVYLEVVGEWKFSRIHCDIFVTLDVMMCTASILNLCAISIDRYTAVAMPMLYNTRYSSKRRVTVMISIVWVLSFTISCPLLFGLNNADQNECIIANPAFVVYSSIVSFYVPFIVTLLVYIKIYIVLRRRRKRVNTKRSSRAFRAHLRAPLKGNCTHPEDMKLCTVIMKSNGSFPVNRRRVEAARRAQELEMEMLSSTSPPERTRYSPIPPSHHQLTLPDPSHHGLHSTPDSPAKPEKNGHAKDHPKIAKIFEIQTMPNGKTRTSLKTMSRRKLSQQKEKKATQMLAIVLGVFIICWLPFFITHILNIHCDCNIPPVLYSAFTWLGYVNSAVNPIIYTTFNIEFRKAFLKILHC
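Agonist mode: compounds alone added to overnight-plated D2 PathHunter cells for 90 min at 37 C, with 57 uM final dopamine (EC100) defining full response. Beta-arrestin recruitment detected by chemiluminescent reagent, read after 1 h at ambient temperature.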
PINK1 modulator = changes PINK1 expression; PINK1 immunofluorescence, high-content cytometry, 24 h; Potency, µM (top dose mostly 76.6 µM), for the others: at the highest dose activation (PINK1 increase), usual class: activators; actives 0.2% (n = 410,000); AID 624263; active = well fitted activation curve with a large enough effect; inconclusive = small, poorly fitted or top-dose-only effect; inactive = flat fitted curve, though single readings scatter; cell line not stated here;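 also: potency is read from the fitted curve at half-maximal effect; % of control where 0% means no effect; nearly all actives have a fitted effect of over 65% in size; a mitochondrial uncoupler was the plate control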
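Measures PINK1 amount and localization on or inside mitochondria by immunofluorescence. Stable cells get compounds at 5 concentrations for 24 hours before fixation and staining; CCCP controls included.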
gsp agonist = activates gsp, the McCune-Albright syndrome mutation. AID 624287. Potency, µM (top dose mostly 76.9 µM), for inactives: at the top dose activation (cAMP increase), usual class: activators. actives 0.13% (n = 340,000). gsp mutant cells, cAMP HTRF, 30 min; control for the full effect not named in the record; active = well fitted activation curve with a large enough effect; inconclusive = small, poorly fitted or top-dose-only effect, or another doubt; inactive = no such curve, though single readings can be large or run the other way; cell line not stated here;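 also: phosphodiesterase inhibitor Ro 20-1724 added with compounds to block cAMP breakdown; potency is read from the fitted curve at half-maximal effect; nearly all actives have a fitted effect of over 60% in size; about a fifth of the inactives were tested at one dose only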
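Cells stably selected in G418 were plated at 2000/well, grown 16-24 hr, then given compounds in DMSO with the PDE inhibitor […] (300 uM solution added) for 30 min at 37C; cAMP was read by HTRF.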
ClpP mod = qHTS Assay for Activators of ClpP. ATP-dependent Clp protease proteolytic subunit (Bacillus subtilis (strain 168)), P80244. purified B. subtilis ClpP, FRET peptide cleavage, 20 min. Potency, µM (highest dose often 57.5 µM), inactives show at the highest dose activity change, negative = active. actives 1.9% (n = 340,000); active = well fitted falling curve with a large enough effect; inconclusive = small, poorly fitted or top-dose-only effect; inactive = no such curve, though single readings can be large or run the other way; also: potency is read from the fitted curve at half-maximal effect; the source files actives as falling curves though it sought activators and does not explain the sign; nearly all actives have a fitted effect of over 65% in size; many hits overshoot -100%
Target sequence (P80244 whole entry, looked up): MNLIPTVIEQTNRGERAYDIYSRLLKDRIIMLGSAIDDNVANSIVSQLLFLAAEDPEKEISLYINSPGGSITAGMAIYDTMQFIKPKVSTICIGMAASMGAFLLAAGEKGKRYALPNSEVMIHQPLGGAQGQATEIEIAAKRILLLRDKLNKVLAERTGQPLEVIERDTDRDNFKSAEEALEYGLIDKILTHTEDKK
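FRET quenching reversal measured ClpP activation: 10 microg/mL B. subtilis ClpP at pH 8 with the FRET-FV decapeptide, read at 430 nm after 320 nm excitation. The 20-min minus 0-min signal was scaled between DMSO/no-enzyme wells and ADEP (5.8 microM final).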
Sfp inh = Sfp phosphopantetheinyl transferase inhibition | Q9F4F7 | AID 1490 | Potency, µM, for inactives: max response, negative = inhibition, most hits filed as inhibitors | actives 3.5% (n = 310,000) | Biochemical Sfp PPTase activity, qHTS; active = well fitted inhibition curve with a large enough effect; inconclusive = small, poorly fitted or top-dose-only effect, or another doubt; inactive = no such curve, though single readings can be large or run the other way;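 also: the enzyme is Sfp with the accession as filed and its product quenches rhodamine fluorescence; potency is read from the fitted curve at half-maximal effect; 0% = enzyme reaction without inhibitor and -100% = no enzyme wells; top concentration of the series not given in the record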
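Sfp 15 nM + cpd, 15 min RT; start w/ rhodamine-CoA 5 uM, BHQ-2-YbbR 12.5 uM (final); 50 mM Hepes pH 7.6, 10 mM MgCl2, 0.01% NP-40, 0.01% BSA; read 525/598 nm at 0 and 30 min.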
Numbers without * were called inactive; & = joins results of further samples; [ ] = another dose, or the depositor's remark.

Start of the data: the first two records as a preview:
How did Cn1cc(C(=O)N2CCCCC2)c(=O)c2cc(S(=O)(=O)N3CCCC3)ccc21 do in these assays?
gsp antagonist: 0%; D2 ag: -0.1; PINK1 modulator: -1.4%; gsp agonist: inconclusive; ClpP mod: -2.5%; Sfp inh: 14%

What do the screens show for `O=C(Cc1ccc(NC(=O)C2CCCN(C(=O)C3CCCC3)C2)cc1)Nc1cccc(C(=O)N2CCCC2)c1` (stereo not drawn)?
gsp antagonist: -7%; D2 ag: 4.2; PINK1 modulator: 1.1%; ClpP mod: 2.5%

All compounds of this part, previewed entries included:
How did Cn1cc(C(=O)N2CCCCC2)c(=O)c2cc(S(=O)(=O)N3CCCC3)ccc21 do in these assays?
gsp antagonist: 0%; D2 ag: -0.1; PINK1 modulator: -1.4%; gsp agonist: inconclusive; ClpP mod: -2.5%; Sfp inh: 14%

What do the screens show for `O=C(Cc1ccc(NC(=O)C2CCCN(C(=O)C3CCCC3)C2)cc1)Nc1cccc(C(=O)N2CCCC2)c1` (stereo not drawn)?
gsp antagonist: -7%; D2 ag: 4.2; PINK1 modulator: 1.1%; ClpP mod: 2.5%

Results for CCN(C(=O)CSc1nc2ccccc2c(=O)n1CCOC)C1CCS(=O)(=O)C1 (stereo not drawn) ?
Menin MLL FP FL: -0.2; gsp antagonist: 2%; D2 ag: -5.6; PINK1 modulator: 1.9%; gsp agonist: 12%[15.4 µM]; Sfp inh: 11%

How did CC(C)n1nnnc1SCC(=O)NCc1ccco1 do in these assays?
gsp antagonist: -20%; D2 ag: 0.2; PINK1 modulator: -1.5%; gsp agonist: 1%[15.4 µM]; ClpP mod: 0.3%

What do the screens show for `C/C(=N\NS(=O)(=O)c1ccc(C)c([N+](=O)[O-])c1)c1cccs1`?
Menin MLL FP FL: 1.8; gsp antagonist: -5%; D2 ag: 2.5; PINK1 modulator: 1.1%; gsp agonist: -8%; Sfp inh: -12%

Results for N#CCCn1c(=O)cnc2cnc(Nc3ccccc3)nc21 ?
Menin MLL FP FL: -0.6; PINK1 modulator: -0.6%; Sfp inh: 14%

What do the screens show for `CC(=O)NCCNc1nc2c(-c3cccc(C)c3)nnn2c2ccccc12`?
Menin MLL FP FL: -1.7; gsp antagonist: 4%; D2 ag: -4.8; PINK1 modulator: 1.0%; gsp agonist: -1%; ClpP mod: -27%; Sfp inh: -7%

What do the screens show for `CCOCCCN(C(=O)Cn1nnc(-c2ccc(OC)c(OC)c2)n1)C(C(=O)NCC1CCCO1)c1ccc(F)cc1` (stereo not drawn)?
Menin MLL FP FL: 4.6; gsp antagonist: -14%; D2 ag: 5.0; PINK1 modulator: 1.1%; gsp agonist: 1%[15.4 µM]; Sfp inh: 7%

Results for O=C(CSc1nc2[nH]ncc2c(=O)[nH]1)NCc1ccc(F)cc1 ?
Menin MLL FP FL: 16; gsp antagonist: 12%; D2 ag: -3.4; PINK1 modulator: 4.0%; gsp agonist: -22%; ClpP mod: inconclusive; Sfp inh: -1%

How did COc1ccc(C(=O)NC(=S)N2CCN(c3ccccc3OC)CC2)cc1 do in these assays?
Menin MLL FP FL: -6.9; gsp antagonist: -14%; D2 ag: -4.3; PINK1 modulator: 0.7%; gsp agonist: 18%; Sfp inh: -10%

Results for Cc1ccc(C(=O)NNC(=O)c2ccc3ncccc3c2)cc1 ?
Menin MLL FP FL: -5.7; gsp antagonist: 10%; D2 ag: 2.0; PINK1 modulator: 3.6%; gsp agonist: -6%[15.4 µM]; Sfp inh: 30%

How did CC(C)NC(=O)C(=O)N/N=C/c1ccco1 do in these assays?
Menin MLL FP FL: 5.4; gsp antagonist: 0%; D2 ag: -3.2; gsp agonist: 14%; ClpP mod: 3.5%; Sfp inh: 13%

How did O=C(CN(c1cccc(Cl)c1)S(=O)(=O)c1ccccc1)NN=C1CCCC1 do in these assays?
Menin MLL FP FL: -0.7; gsp antagonist: 4%; D2 ag: -3.7; PINK1 modulator: 2.0%; gsp agonist: 5%; ClpP mod: -0.6%; Sfp inh: 12%

How did C=CCn1c(SCC(=O)Nc2sccc2C(N)=O)nc2sc(CC)cc2c1=O do in these assays?
Menin MLL FP FL: 9.9; gsp antagonist: -29%; D2 ag: 4.8; PINK1 modulator: 2.3%; gsp agonist: 6%; ClpP mod: -0.9%; Sfp inh: -1%

What do the screens show for `O=C(OCc1c(-c2ccccc2)ncc2ccccc12)c1ccc(Cl)cc1Cl`?
gsp antagonist: 0%; D2 ag: -3.3; PINK1 modulator: 3.1%; ClpP mod: -27%

Results for CCc1ccc2[nH]c(=O)c(CN(CCN(CC)CC)C(=O)Nc3ccccc3OC)cc2c1 ?
Menin MLL FP FL: 4.1; gsp antagonist: 9%; D2 ag: -4.3; PINK1 modulator: -1.5%; gsp agonist: -1%; ClpP mod: -10%; Sfp inh: -6%

What do the screens show for `COC(=O)[C@H]1C[C@H](OC(=O)NCc2ccco2)[C@@]2(O)CN(S(=O)(=O)c3ccc(C)cc3)CC2[C@H]1C(=O)OC` (stereo partly drawn)?
D2 ag: -8.2; PINK1 modulator: 0.4%; gsp agonist: -5%; ClpP mod: -0.8%

What do the screens show for `CN(/N=C/c1ccncc1)c1cnc2ccccc2n1`?
Menin MLL FP FL: -1.9; gsp antagonist: -21%; D2 ag: 3.9; PINK1 modulator: -1.2%; gsp agonist: 16%[15.4 µM]; ClpP mod: -9.2%; Sfp inh: -3%

How did CC(C)C(=O)COc1c2occc2cc2ccc(=O)oc12 do in these assays?
gsp antagonist: -4%; D2 ag: 3.5; PINK1 modulator: 0.0%; ClpP mod: -2.1%

How did CC(C)CCN1CCN(Cc2cc(F)ccc2-n2cccn2)CC1CCO (stereo not drawn) do in these assays?
Menin MLL FP FL: -3.2; gsp antagonist: 1%; D2 ag: -6.8; PINK1 modulator: -0.7%; gsp agonist: 13%[15.4 µM]; Sfp inh: 12%

Results for COc1ccccc1NC(=O)c1c(C)cc(=O)oc1C ?
Menin MLL FP FL: 3.3; gsp antagonist: 3%; D2 ag: -3.1; PINK1 modulator: 0.0%[38.3 µM]; gsp agonist: -6%; ClpP mod: 0.3%; Sfp inh: 26%

Results for COc1ccccc1C(O)c1ncc(-c2cccc3ccccc23)[nH]1 (stereo not drawn) ?
D2 ag: -3.6; PINK1 modulator: 0.8%; ClpP mod: 4.1%

What do the screens show for `c1ccc(-c2noc(-c3ccco3)n2)nc1`?
Menin MLL FP FL: -0.2; gsp antagonist: 9%; D2 ag: -3.6; PINK1 modulator: -1.7%; gsp agonist: 11%; ClpP mod: -0.3%; Sfp inh: 8%

How did O=C(Cn1ccccc1=S)c1ccc(Cl)c(Cl)c1 do in these assays?
gsp antagonist: 4%; D2 ag: -1.6; PINK1 modulator: 0.6%; gsp agonist: -6%[15.4 µM]

Results for COc1ccc(-n2c(Cc3cccn3C)nnc2SCC(=O)NCCc2ccccc2)cc1 ?
Menin MLL FP FL: 3.0; gsp antagonist: -11%; D2 ag: -0.2; PINK1 modulator: -4.3%[38.3 µM]; gsp agonist: 4%; ClpP mod: -0.1%; Sfp inh: 5%

Results for COC(=O)c1cc(=O)n(Cc2ccc(F)cc2)c(=NCc2ccc(F)cc2)s1 ?
Menin MLL FP FL: -2.2; gsp antagonist: 13%; D2 ag: -2.6; PINK1 modulator: 1.5%; gsp agonist: 4%; ClpP mod: -1.7%; Sfp inh: 5%

Results for CC(C)NC(=O)c1cc(C(=O)c2cc(Cl)ccc2O)coc1=N ?
Menin MLL FP FL: 16; gsp antagonist: -13%; D2 ag: 2.7; PINK1 modulator: -0.3%; gsp agonist: 4%; ClpP mod: -11%; Sfp inh: 11%

Results for COc1ccc(CNC(=O)CN2CCC(NC(=O)c3ccccc3C)CC2)cc1 ?
gsp antagonist: -32%; D2 ag: -2.0; PINK1 modulator: 2.2%; gsp agonist: 20%[15.4 µM]; Sfp inh: 10%

How did O=C(NCCc1ccncc1)c1ccc2nc(Cc3cccc(Cl)c3)oc2c1 do in these assays?
gsp antagonist: -16%; D2 ag: 0.7; PINK1 modulator: 0.7%; gsp agonist: -32%[inhibitor]; ClpP mod: -11%; Sfp inh: 4%

How did CCCSc1cc(=O)n(-c2ccccc2)nc1C(=O)O do in these assays?
Menin MLL FP FL: -0.8; gsp antagonist: 6%; D2 ag: 0.9; PINK1 modulator: -1.2%; gsp agonist: 5%; Sfp inh: 8%

Results for CC(C)(C)OC(=O)N[C@H](C(=O)OC(C)(C)C)c1ccc(Br)cc1 ?
gsp antagonist: -3%; D2 ag: -2.1; PINK1 modulator: 23%; gsp agonist: -10%; ClpP mod: 1.0%

What do the screens show for `C=CCCC(=O)Nc1nc(C)c(-c2csc(Nc3ccc(Cl)cc3)n2)s1`?
Menin MLL FP FL: 5.5; gsp antagonist: -8%; D2 ag: -4.8; PINK1 modulator: 1.9%; gsp agonist: inconclusive; ClpP mod: inconclusive; Sfp inh: -8%

How did Cn1c(=O)c2ncn(CC(=O)Nc3cccc(-c4nc5ccccc5s4)c3)c2n(C)c1=O do in these assays?
Menin MLL FP FL: -0.8; gsp antagonist: -19%; D2 ag: -1.8; PINK1 modulator: 1.6%[38.3 µM]; gsp agonist: inconclusive; ClpP mod: -24%; Sfp inh: -20%

Results for Cc1ccc(Nc2c(-c3ccc(N4CCOCC4)cc3)nc3ncccn23)cc1 ?
Menin MLL FP FL: 5.2; gsp antagonist: inconclusive; D2 ag: -3.3; PINK1 modulator: 0.9%&0.1%; gsp agonist: inconclusive; ClpP mod: 0.7%&-15%; Sfp inh: -15%

Results for CC(=O)N1CCN(S(=O)(=O)c2ccc3c(c2)CCC(=O)N3)CC1 ?
gsp antagonist: -9%; D2 ag: -3.3; PINK1 modulator: -0.8%; gsp agonist: -66%[inhibitor]; ClpP mod: 1.3%

How did CC1CCCN(CCCNC(=O)c2ccc(CS(=O)(=O)c3c(Cl)cccc3Cl)o2)C1 (stereo not drawn) do in these assays?
gsp antagonist: inconclusive; D2 ag: -7.8; PINK1 modulator: 0.5%; gsp agonist: inconclusive; ClpP mod: -0.6%; Sfp inh: 7%
